Bioassay records from PubChem BioAssay.
E coli growth: blocks Escherichia coli growth; 330,000 tested, 0.21% active; OD600, 23 h; stronger effect = lower value; OD600 absorbance (no concentration beside the values); AID 1053175;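 active = OD600 absorbance below the run mean of sample wells minus 3.6 SD, in any replicate, cut at about 0.56 in these data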;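 note: stock transfer was 300 nL into about 60 µL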
MLL AF4-AF9 inh: blocks AF4 peptide binding to human AF9; P42568; AlphaScreen, biotin-AF4 peptide binding to FLAG-AF9; inhibition, % at 10 µM; 350,000 tested, 0.47% active;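 active = every replicate reaching a set inhibition limit, whatever the replicate mean, cut at about 25% in these data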;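 note: 0% = plate neutral control median and 100% = total signal loss; the record names both 10 and 1 µM as test concentration; the first replicate is given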
Target sequence (P42568 whole entry, looked up): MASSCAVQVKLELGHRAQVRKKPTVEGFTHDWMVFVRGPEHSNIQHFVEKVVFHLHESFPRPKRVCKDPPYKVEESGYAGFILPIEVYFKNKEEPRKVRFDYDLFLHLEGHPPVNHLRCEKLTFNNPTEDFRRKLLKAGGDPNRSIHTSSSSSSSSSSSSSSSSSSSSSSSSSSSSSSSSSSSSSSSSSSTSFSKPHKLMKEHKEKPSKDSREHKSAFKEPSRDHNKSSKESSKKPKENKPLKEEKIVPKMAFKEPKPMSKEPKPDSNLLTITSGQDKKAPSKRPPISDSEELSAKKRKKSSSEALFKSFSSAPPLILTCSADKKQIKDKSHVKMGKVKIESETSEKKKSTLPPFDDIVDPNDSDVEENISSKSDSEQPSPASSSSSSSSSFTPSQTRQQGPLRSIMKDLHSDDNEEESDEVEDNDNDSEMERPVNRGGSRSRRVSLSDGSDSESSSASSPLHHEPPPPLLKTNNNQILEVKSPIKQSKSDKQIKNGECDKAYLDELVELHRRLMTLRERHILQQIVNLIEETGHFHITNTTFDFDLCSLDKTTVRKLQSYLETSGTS
A1 inh: inhibitors of the anti-apoptotic protein A1, read as caspase activation. MEF A1-2A-BIM cells, Caspase-Glo 3/7 luminescence, 3 h; percent of clofoctol response, vehicle zero. caspase activation, % (concentration not given with the values). 330,000 tested, 0.066% active;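 active = over half of replicate activation scores above 10%, or exactly half above 10 with the replicate mean above 10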;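 note: wells of about 30 µL received 50 nL stock; many hits fall short of the cut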
FGF22 binding: shifts melting point of recombinant human FGF22. Q9HCT0. recombinant FGF22 thermal shift, SYPRO orange fluorescence; percent of sucrose octasulfate shift, DMSO zero. calls only at 9.99 µM. 340,000 tested, 1.5% active. AID 651658;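 active = melting point raised past a set limit in the mean and every replicate; three in four hits are not shown here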
Target sequence (Q9HCT0 whole entry, looked up): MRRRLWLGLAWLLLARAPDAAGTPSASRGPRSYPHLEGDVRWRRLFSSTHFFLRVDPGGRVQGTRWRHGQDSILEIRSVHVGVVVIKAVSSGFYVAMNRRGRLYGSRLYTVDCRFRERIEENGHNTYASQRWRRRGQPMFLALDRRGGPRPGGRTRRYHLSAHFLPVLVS
T cruzi inh: blocks replication of Trypanosoma cruzi. 300,000 tested, 1.4% active. T. cruzi beta-gal in NIH3T3, luminescence, 90 h. inhibition, % (concentration not given with the values). AID 1885;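 active = mean inhibition across valid replicates above about 55%, limit read from the data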;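 note: signal also drops with host cell toxicity which is not excluded here; 0% = plate median of DMSO wells and 100% = zero luminescence signal; higher percent means less beta-gal luminescence so fewer parasites; stock transfer was 50 nL into about 50 µL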
Beta cell apopt: beta cell apoptosis inhibition | protection from apoptosis, % (concentration not given with the values) | 300,000 tested, 0.8% active | INS-1E cytokine-induced death, ATP luminescence, 48 h; percent of positive-control rescue, neutral wells zero;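 active = all replicates at 75% or more, or half of them and the mean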;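 note: 0% = cytokine-treated negative control wells and 100% = positive control rescue; higher means more ATP so stronger rescue from cytokine killing; wells of about 40 µL received 100 nL stock; the first replicate is given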
UCH37 inh: human UCH37 deubiquitinating enzyme inhibition. 330,000 tested, 0.33% active. purified proteasome/UCH37, Ub-AMC cleavage fluorescence. inhibition, % (concentration not given with the values). Q9Y5K5. AID 588478;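 active = mean of two replicates above 20%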;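 note: 0% = compound-free wells with enzyme and 100% = wells lacking proteasome; stock transfer was 100 nL into about 20 µL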
Target sequence (Q9Y5K5 whole entry, looked up): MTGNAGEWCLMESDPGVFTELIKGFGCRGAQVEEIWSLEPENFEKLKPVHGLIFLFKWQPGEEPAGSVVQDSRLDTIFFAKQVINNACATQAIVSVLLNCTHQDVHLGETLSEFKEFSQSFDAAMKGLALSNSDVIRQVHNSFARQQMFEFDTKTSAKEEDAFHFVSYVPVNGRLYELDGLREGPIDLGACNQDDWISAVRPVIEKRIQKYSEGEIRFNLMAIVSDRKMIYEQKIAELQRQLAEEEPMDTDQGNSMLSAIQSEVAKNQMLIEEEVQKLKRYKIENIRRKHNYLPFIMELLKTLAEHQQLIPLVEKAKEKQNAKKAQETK
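assay system = human UCH37 enzyme supplied as purified proteasome complex | amount = proteasome at 0.15 nM in the dispensed enzyme solution | schedule = 30 min compound-proteasome preincubation then 25 min substrate reaction, room temperature | measured by = fluorescence, ex 355 nm, em 460 nm | benchmarks = no-proteasome wells (full inhibition) and compound-free wells (no inhibition)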
rRNA inh HTS: inhibitors of bacterial rRNA selective over humanized ribosomes. 350,000 tested, 1.6% active. GFP signal change (wild-type ribosome), % (no concentration beside the values). E. coli WT GFP vs humanized-ribosome RFP mutants, fluorescence, 24 h; stronger effect = lower value; DMSO median 0, no signal -100. AID 720706;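 active = significant combined selectivity score with lowered wild-type GFP, culture density cut under 30%, mutant RFP and density less affected; inactive = any of these conditions unmet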; note: one replicate is shown; some compounds called inactive have numbers as strong as hits
rRNA inh HTS OD600: also measured in rRNA inh HTS; calls as there; OD600 change, %; measured here: OD600 growth;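 optical density of the mix in the first replicate; 0 = DMSO median and -100 = no signal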
rRNA inh HTS RFP: recorded beside rRNA inh HTS, whose call it bears; RFP signal change, %; measured here: RFP humanized mutant strains;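 first replicate; 0 = DMSO median and -100 = no signal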
The depositor's hits bear a star; i = inactive; . = not tested or not shown.

SMILES	E coli growth	MLL AF4-AF9 inh	A1 inh	FGF22 binding	T cruzi inh	Beta cell apopt	UCH37 inh	rRNA inh HTS	rRNA inh HTS OD600	rRNA inh HTS RFP
COc1ccc(/C=C2\SC(=O)N(CC(=O)NCCCn3ccnc3)C2=O)cc1	0.66	3.9	-0.3	i	-7	-1	13	-6	6	2.1
CCCOc1ccc(N2C(=O)CC(NNC(=O)c3ccc(COc4ccccc4)o3)C2=O)cc1 (stereo not given)	0.72	-17	0.7	i	4	11	4.0	8	7	4.5
O=C(Cc1ccsc1)NNC(=O)c1ccccc1O	0.56	-18	0.2	i	-15	5	-49	0	0	0.5
CCC(C)NC(=O)CSC1=Nc2ccccc2C2=NC(CC(=O)NCc3ccccc3)C(=O)N12 (stereo not given)	0.73	.	-0.1	.	-2	1	-99	.	.	.
CCn1c(Cc2ccccc2)nnc1SCC(=O)Nc1nnc(-c2ccccc2)s1	0.74	.	0.3	.	3	0	4.1	.	.	.
COc1ccccc1N1CC(O)=C(c2nc3ccccc3s2)C1=N	0.65	0.9	-0.1	.	-8	-5	-7.8	-16	-9	18
Oc1ccc(C2Nc3cccc4cccc(c34)N2)cc1	0.65	5.4	0.2	i	-13	3	-25	5	17	-1.8
CC(C)C(NS(=O)(=O)c1cccs1)C(=O)NCc1ccccc1Cl (stereo not given)	0.64	0.1	0.0	.	-4	2	3.2	0	-11	2.2
CC(=O)c1cccc(S(=O)(=O)N2CCN(CCOc3ccccc3)CC2)c1	0.72	1.0	0.3	i	.	-2	4.5	-14	-3	-6.1
COc1ccc(C(=O)N[C@H](C(=O)NCc2ccco2)C(C)C)cc1	0.71	-0.1	-0.4	i	-6	0	1.9	7	7	0.7
CN(CC(=O)Nc1ccccc1C(F)(F)F)C(=O)CSc1nnc(-c2ccncc2)n1C	0.71	1.3	0.3	i	.	6	1.7	8	4	-5.1
CN1C(=O)C(CC(=O)Nc2ccc(F)cc2)N(CCCc2ccccc2)C1=S (stereo not given)	0.66	.	0.7	.	23	7	3.6	.	.	.
O=C(NC1CCCCC1)NC1(C(=O)NCCCN2CCOCC2)CCCCC1	0.73	.	0.2	.	-4	-7	5.0	.	.	.
COc1nc(OC)nc(N2CCCCCC2)n1	0.7	.	-0.2	.	-8	.	4.1	.	.	.
COc1ccc(OC)c(CNc2ccc3c(c2)nc(C)n3C)c1	0.66	9.3	-0.2	i	-8	.	-5.1	7	4	-0.9
CCOc1ccc(NS(=O)(=O)c2ccc(C(=O)N3CCC3)cc2)cc1	0.66	3.3	0.5	i	-13	7	4.2	3	3	-1.6
Cn1c(SCC(=O)Nc2ccc(N3CCOCC3)cc2)nnc1C1CC1	0.71	-9.2	-1.8	i	.	-5	4.8	8	19	-2.0
COc1cc2oc(=O)c(Br)c(C)c2c(OC)c1OC	0.74	.	-0.3	.	.	5	3.5	.	.	.
O=CN1CCN(c2c([N+](=O)[O-])c(=O)oc3ccccc23)CC1	0.62	1.7	-1.4	i	-11	1	7.0	7	12	-2.0
Cc1ccc(C)c(N2CCN(C(=O)c3ccc4nc(-c5ccco5)c(-c5ccco5)nc4c3)CC2)c1	0.74	.	-1.0	.	-2	1	-64	.	.	.
Cc1cc(NC(=O)c2cccc(S(=O)(=O)Nc3cccc(C(=O)O)c3)c2)no1	.	-3.1	-0.5	i	-10	.	.	5	14	-3.0
COc1ccc(CNC(=O)COc2cc(O)c3c(c2)OC(C)(C)CC3=O)c(OC)c1	0.72	3.1	0.8	i	17	-1	2.7	5	4	-2.3
CSCCC(NC(=O)c1ccc(C(C)(C)C)cc1)C(=O)OCC(=O)N1CCCC1=O (stereo not given)	0.7	8.0	0.2	i	.	-3	3.8	2	11	-1.2
O=[N+]([O-])c1cccc(/C=C/C=N/Nc2nc(N3CCCCC3)nc(N3CCCCC3)n2)c1	.	5.7	0.0	i	33	-4	.	2	6	0.1
Cc1ccc(NC(=O)CCC(=O)NNC(=O)COc2ccccc2)cc1C	.	-2.8	-0.4	i	-16	-6	.	.	.	.

A different layout for four compounds above:
mol: CCn1c(Cc2ccccc2)nnc1SCC(=O)Nc1nnc(-c2ccccc2)s1
  E coli growth = 0.74; MLL AF4-AF9 inh = .; A1 inh = 0.3; FGF22 binding = .; T cruzi inh = 3; Beta cell apopt = 0; UCH37 inh = 4.1; rRNA inh HTS = .; rRNA inh HTS OD600 = .; rRNA inh HTS RFP = .
mol: COc1ccccc1N1CC(O)=C(c2nc3ccccc3s2)C1=N
  E coli growth = 0.65; MLL AF4-AF9 inh = 0.9; A1 inh = -0.1; FGF22 binding = .; T cruzi inh = -8; Beta cell apopt = -5; UCH37 inh = -7.8; rRNA inh HTS = -16; rRNA inh HTS OD600 = -9; rRNA inh HTS RFP = 18
mol: Oc1ccc(C2Nc3cccc4cccc(c34)N2)cc1
  E coli growth = 0.65; MLL AF4-AF9 inh = 5.4; A1 inh = 0.2; FGF22 binding = i; T cruzi inh = -13; Beta cell apopt = 3; UCH37 inh = -25; rRNA inh HTS = 5; rRNA inh HTS OD600 = 17; rRNA inh HTS RFP = -1.8
mol: CC(C)C(NS(=O)(=O)c1cccs1)C(=O)NCc1ccccc1Cl (stereo not given)
  E coli growth = 0.64; MLL AF4-AF9 inh = 0.1; A1 inh = 0.0; FGF22 binding = .; T cruzi inh = -4; Beta cell apopt = 2; UCH37 inh = 3.2; rRNA inh HTS = 0; rRNA inh HTS OD600 = -11; rRNA inh HTS RFP = 2.2

Other records:
SMILES	E coli growth	MLL AF4-AF9 inh	A1 inh	FGF22 binding	T cruzi inh	Beta cell apopt	UCH37 inh	rRNA inh HTS	rRNA inh HTS OD600	rRNA inh HTS RFP
CC(Nc1ccnc2cc(Cl)ccc12)c1ccc(S(N)(=O)=O)cc1 (stereo not given)	0.66	-4.8	-0.4	i	6	4	-9.2	6	15	3.4
Cc1cc(C)nc(SCc2ccc3nonc3c2)n1	0.67	.	0.3	.	-10	-3	3.6	.	.	.
Cc1cc(NC2CCCCC2)n2c(n1)nc1ccccc12	0.72	0.6	-0.5	i	14	0	-444	5	6	0.3
Cc1ccc(S(=O)(=O)N2CCNC(=O)C2)c(C)c1	0.59	-5.5	.	i	.	.	0.6	1	0	-5.2
Cc1cc(C)c(NC(=O)Cn2nnc(C(=O)NCCc3ccccc3)c2N)c(C)c1	0.7	.	0.0	.	-4	2	6.2	.	.	.
COCCCNC(=O)Cn1cnc2sc(C)c(S(=O)(=O)N3CCN(c4ccccc4OC)CC3)c2c1=O	0.73	1.6	0.0	i	-4	1	-2.1	0	5	-0.4
CN1CCN(C/C(=C2/N=C(c3ccccc3)OC2=O)N(C)C)CC1	0.68	.	0.1	.	9	4	18	.	.	.
COc1cc2c(cc1OC)C(NNC(=O)c1ccc(Br)o1)=NC(C)(C)C2	0.7	2.3	-0.1	i	32	3	8.8	-9	-12	-1.5
COc1ccccc1C(=O)NC(=O)COC(=O)c1cccc(C)c1O	0.72	2.6	-0.3	i	-8	-3	-11	9	11	0.7
COCC(O)CSc1c([N+](=O)[O-])nc(C)n1Cc1ccc(OC)c([N+](=O)[O-])c1 (stereo not given)	0.73	.	0.9	.	11	3	0.1	.	.	.
O=C(COc1ccccc1C(=O)O)Nc1nc2ccc([N+](=O)[O-])cc2s1	0.64	-2.1	0.9	i	-4	-4	1.5	8	-3	2.4
Cc1ccc(CN(C(=O)c2ccco2)C(C(=O)NC2CCCC2)c2cccnc2)cc1 (stereo not given)	0.7	4.8	0.1	i	2	-3	-0.5	-8	3	-5.2
CC(C)C(NS(=O)(=O)c1cccc2nsnc12)C(=O)NC1CCCCC1 (stereo not given)	0.62	0.9	-0.2	i	-2	0	1.4	4	-2	-0.6
Cc1nc(C(C)N(C)Cc2nc(-c3ccc4c(c3)OCO4)no2)c(C)s1 (stereo not given)	0.66	0.0	0.2	i	2	-7	1.9	-14	-31	-3.2
CCCn1c(SCC(=O)c2cc(C)c(C)cc2C)n[nH]c1=O	0.73	.	-1.0	.	2	2	3.6	.	.	.
O=C(c1cccs1)N1CCN(c2ncccn2)CC1	0.71	.	0.0	.	-1	-2	-0.3	.	.	.
CSC1=NCCN1C(=O)c1ccco1	0.71	-3.2	0.3	i	0	1	0.5	7	10	0.9
Cc1noc(/C=C/N(C)C)c1S(=O)(=O)N1CCCC(C(=O)Nc2ccc(F)cc2F)C1 (stereo not given)	0.71	0.1	0.5	i	0	-5	9.5	5	8	-3.8
Cc1ccc(N(C(=O)c2csnn2)C(C(=O)NC(C)(C)C)c2cccs2)cc1 (stereo not given)	0.69	.	-0.3	.	1	-6	2.7	.	.	.
C#CC(C)(CC)NC(=O)Cn1nnc(-c2cccc(C(F)(F)F)c2)n1 (stereo not given)	0.66	-1.2	-0.4	.	-1	-2	0.5	-3	-3	-0.2
Cc1ccn2c(C=O)c(-c3ccc(F)cc3)c(C=O)c2c1	0.67	0.7	-0.6	i	10	4	0.9	-20	-28	-7.8
COc1ccccc1C(=O)c1c(C)c(CCC#N)n2ccccc12	0.62	3.6	0.2	i	-3	-8	11	-3	-8	-1.8
Cc1ccccc1NC(=O)Nc1ccccc1C(N)=O	0.67	-1.5	-0.7	i	-53	-6	1.9	20	16	4.4
CCCSc1nnc2nc3c(nn12)c1ccccc1n3C	0.7	10	1.3	i	7	.	5.5	4	9	3.3
Cc1nc(Nc2cnc(/C=C/c3cc(C(=O)Nc4cccc(C(F)(F)F)c4)ccc3C)cn2)cc(N2CCNCC2)n1	.	.	0.2	.	45	107*	-25	.	.	.

(cont.)
SMILES	E coli growth	MLL AF4-AF9 inh	A1 inh	FGF22 binding	T cruzi inh	Beta cell apopt	UCH37 inh	rRNA inh HTS	rRNA inh HTS OD600	rRNA inh HTS RFP
Cc1cccc(NC(=O)c2cc(S(=O)(=O)N3CCCC3)cn2C)c1	0.75	-4.5	0.7	i	-7	5	-0.6	7	7	-0.6
COC(=O)C1C(=O)NC(SC)=C(C#N)C1c1ccccc1F (stereo not given)	0.69	.	-0.2	.	.	-5	1.3	.	.	.
Cc1ccccc1N1CCN(Cc2c(C#N)c3ccccc3n2C)CC1	0.75	.	1.0	.	17	-1	5.4	.	.	.
CCOc1ccc(NC(=O)CN(C)C(=O)C(C)Oc2ccc(Cl)cc2)cc1OCC (stereo not given)	0.67	3.3	.	i	.	.	2.0	-13	-8	-0.5
COc1cc(C(Nc2ccc3c(c2)OCO3)C(=O)NC2CCCCC2)cc(OC)c1OC (stereo not given)	0.69	.	0.1	.	-5	0	-6.0	.	.	.
Cc1cc(C)c2c(N)c(C(=O)NN3CC(=O)N(c4ccccc4F)CC3=O)sc2n1	0.71	.	0.8	.	-20	-7	-101	.	.	.
O=C(NCCc1ccccc1F)C1CCC(=O)N(Cc2ccc(Cl)cc2)C1 (stereo not given)	0.68	-2.6	.	i	-10	.	1.5	-1	-21	0.2
CSc1ccc(CNC(=O)c2ccc(NC(=O)C3=CSCCO3)cc2)cc1	0.72	0.1	-0.3	i	-3	4	5.1	4	5	-1.2
CCOC(=O)C1=CN(Cc2cccc(-c3cccnc3)c2)S(=O)(=O)N(CC)C1C (stereo not given)	0.71	-0.7	.	i	.	.	-1.4	-42	-67	-7.7

Some of the compounds tested; the hit share may differ from the screen's.
